# UCH37 DUB inh – inhibitors of human UCH37 deubiquitinase, primary screen, biochemical, Ub-AMC cleavage, fluorescence | purified proteasome/UCH37 | inhibition, % (concentration not given with the values) | hit rate 0.33% among 330,000 | AID 588478, 2011;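 active means mean of two replicates above 20%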;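 further: 0% = compound-free wells with enzyme and 100% = wells lacking proteasome; stock transfer was 100 nL into about 20 µL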
#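 Reagent: Ub-AMC substrate; assay system: Proteasome-associated human UCH37 deubiquitinase; controls: no-proteasome and no-compound wells; read-out: % inhibition of Ub-AMC cleavage fluorescence; timing: 30 min preincubation with enzyme, 25 min cleavage at room temperature; signal: AMC fluorescence from Ub-AMC cleavage, excitation 355 nm, emission 460 nm; buffer or medium: Tris-HCl pH 7.4 plus ovalbumin, ATP-MgCl2, DTT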
# LANA-H2B inh – blockers of LANA interaction with H2A/H2B – biochemical, FP readout, HTS, primary screen | cell-free LANA-H2A/H2B peptide, fluorescence polarization | inhibition, % (no concentration beside the values) | hit rate 0.6% among 320,000 | AID 2629, 2010; in the data active means inhibition mostly above about 10%, no sharp cut-off; inactive means mostly below about 6.7%;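 further: stock transfer was 7.5 nL into about 10 µL; 0% = median of vehicle wells and 100% = median of positive control wells; one replicate is shown; the record names a cut of 25% in any replicate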
# Target sequence (Q9QR71 whole entry, looked up): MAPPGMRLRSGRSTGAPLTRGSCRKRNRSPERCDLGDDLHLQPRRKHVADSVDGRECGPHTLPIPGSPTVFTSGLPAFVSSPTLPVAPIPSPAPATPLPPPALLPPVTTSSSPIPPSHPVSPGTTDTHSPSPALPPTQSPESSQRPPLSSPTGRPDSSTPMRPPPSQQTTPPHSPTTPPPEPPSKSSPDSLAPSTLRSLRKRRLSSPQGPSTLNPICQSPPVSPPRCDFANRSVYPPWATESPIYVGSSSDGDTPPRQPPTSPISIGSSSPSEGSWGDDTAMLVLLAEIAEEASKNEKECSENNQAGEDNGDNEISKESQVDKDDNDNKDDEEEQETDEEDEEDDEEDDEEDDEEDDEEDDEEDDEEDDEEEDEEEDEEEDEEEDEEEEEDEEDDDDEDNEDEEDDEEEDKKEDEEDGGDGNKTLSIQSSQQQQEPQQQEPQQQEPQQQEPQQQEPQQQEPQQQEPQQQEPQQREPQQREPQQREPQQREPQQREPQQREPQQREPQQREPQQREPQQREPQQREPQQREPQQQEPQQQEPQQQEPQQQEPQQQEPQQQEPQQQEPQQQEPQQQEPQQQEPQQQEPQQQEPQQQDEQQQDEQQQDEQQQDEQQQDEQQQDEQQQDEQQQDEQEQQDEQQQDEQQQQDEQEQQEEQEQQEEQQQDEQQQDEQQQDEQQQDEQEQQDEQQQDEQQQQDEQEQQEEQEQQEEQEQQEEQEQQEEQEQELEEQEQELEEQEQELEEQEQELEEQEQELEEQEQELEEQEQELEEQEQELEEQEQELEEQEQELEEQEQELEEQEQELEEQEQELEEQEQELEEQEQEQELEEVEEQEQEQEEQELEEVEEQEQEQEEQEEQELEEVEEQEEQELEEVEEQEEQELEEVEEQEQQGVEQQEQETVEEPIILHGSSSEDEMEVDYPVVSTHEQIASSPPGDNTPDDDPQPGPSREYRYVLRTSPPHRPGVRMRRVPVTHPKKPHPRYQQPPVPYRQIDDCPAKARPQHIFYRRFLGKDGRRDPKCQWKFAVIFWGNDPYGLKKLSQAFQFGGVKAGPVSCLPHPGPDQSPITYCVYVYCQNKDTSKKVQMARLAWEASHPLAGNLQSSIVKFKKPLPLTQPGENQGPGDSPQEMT
# A1 inh – caspase 3/7 activation in MEF A1-2A-BIM cells, primary screen, A1 inhibitor project, cell-based, luminescence, HTS; hit rate 0.066% among 330,000; Caspase-Glo 3/7 luminescence, 3 h; percent of clofoctol response, vehicle zero; caspase activation, % (concentration not given with the values);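 active means over half of replicate activation scores above 10%, or exactly half above 10 with the replicate mean above 10; inconclusive means replicate mean below 10 yet half the replicates above 10; inactive means over half of replicates below 10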;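 further: wells of about 30 µL received 50 nL stock; many hits fall short of the cut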
# HNF4A DNA FP – change in binding of human HNF4A to DNA, primary screen, biochemical, fluorescence polarization, FITC-DNA; Hepatocyte nuclear factor 4-alpha (Homo sapiens), P41235; 1 h; activity change, % at 10 µM; hit rate 0.3% among 360,000; AID 1224865, 2016; in the data active means activity change above about 30%, passing the limit was not always enough;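 further: controls were the assay level and a saturating level of protein; the project sought stronger binding though the title names inhibitors; some compounds called inactive have numbers as strong as hits; positive values seem to mean higher polarization but the record does not say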
# Vif TR-FRET – inhibitors of Vif binding to APOBEC3G peptide, primary screen, biochemical, TR-FRET, GST-Vif 1-94, biotin-A3G peptide, dose response retest (AID 1117319); hit rate 0.57% among 260,000; TR-FRET GST-Vif / biotin-A3G peptide binding; higher % means a stronger effect; test concentration not given here; strong numbers were not always called active; inhibition, %; hits with a dose series show IC50 in µM; Virion infectivity factor (Human immunodeficiency virus type 1 group M subtype B (isolate …;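 active means above the screen mean plus three standard deviations and confirmed in dose response; inconclusive means results disagree or hit not tested in dose response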;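 further: Vif residues 1-94 fused to GST binding biotinylated APOBEC3G peptide 110-148; 0% = full assay without inhibitor and 100% = GST in place of GST-Vif; retest series ran down from 100 µM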
# B2AR ag – beta2AR agonists driving receptor internalization, primary screen, cell-based, FAP fluorogen, flow cytometry. Beta-2 adrenergic receptor (Homo sapiens), P07550. Am2.2-beta2AR cells; reference of the scale not given here. response, % (no concentration beside the values). hit rate 0.43% among 340,000. AID 504454, 2011;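 active means response above a set limit, near 3 SD of response in nonfluorescent compounds, cut at about 42% in these data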;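 further: stock transfer was 100 nL into about 11 µL; a reference agonist was the positive control; negative values mostly stem from fluorescent compounds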
# E coli growth – E. coli growth inhibition, primary screen, OD600. Escherichia coli growth, 23 h; stronger effect = lower value. OD600 absorbance (concentration not given with the values). hit rate 0.21% among 330,000;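 active means OD600 absorbance below the run mean of sample wells minus 3.6 SD, in any replicate, cut at about 0.56 in these data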;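 further: stock transfer was 300 nL into about 60 µL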
# Numbers without * were called inactive; i = inactive; ? = inconclusive; / = no result given; & = joins results of further samples.
Compound	Vif TR-FRET	LANA-H2B inh	E coli growth	B2AR ag	UCH37 DUB inh	A1 inh	HNF4A DNA FP
CCC(NC(=O)c1ccccc1NC(=O)c1ccc(OC)cc1)C(=O)N1CCCC1 (stereo not drawn)	-15.1%	1.9	0.684	-0.2	-0.8	-2.1	2.9
O=C(NCCCN1CCOCC1)C(=O)N/N=C/c1c(Cl)cccc1Cl	/	8.8	/	-3.6	/	-0.2	-3.6
Cn1c(SCC(=O)NCCN2C(=O)CSC2=O)nnc1-c1ccccc1	/	3.7	0.69	-4.2	3.2	0.5	3.6
CCOc1ccc(-n2c(Cc3cc(=O)[nH]c(=O)[nH]3)nnc2SCC(=O)OC)cc1	?	-2.5	0.759	0.7	1.9	0.4	2.8
Cc1cc(NC(=O)C(C)C)ncc1NC(=O)Cc1ccccc1	-1.9%	8.3	0.725	0.8	1.3	0.0	0.6
Cc1cc(C)n(C(=O)C(C)n2nc([N+](=O)[O-])c(Br)c2C)n1 (stereo not drawn)	/	1.3	0.637	-0.2	-0.1	0.3	1.0
CCOc1ccc(NC(=O)N(C2CCCCCC2)C2CCN(C(C)=O)CC2)cc1	2.6%	-5.0	0.676	-4.8	-1.5	0.8	-0.2
CCN(c1ccccc1)S(=O)(=O)c1cccc(C(=O)NCc2ccccn2)c1	4.1%	2.4	0.629	-9.6	2.9	0.5	2.7
COc1ccccc1-n1cnnc1SC1CCOC1=O (stereo not drawn)	-1.2%	1.1	0.731	1.1	1.0	0.5	1.3
CC(NC(=O)c1ccccc1F)c1ccccc1 (stereo not drawn)	/	-4.1	0.692	-1.6	3.8	0.1	-0.2
COC(=O)c1ccc(C(NC(=O)OCc2ccccc2)/C(F)=C/[C@@H](C)C(=O)NCc2ccc(-c3ccccc3)cc2)cc1 (stereo partly drawn)	-1.5%	5.4	/	/	1.6	-1.3	/
CCOc1ccc(C(C(=O)NC2CCCCC2)N(CCOC)C(=O)c2snc(C(N)=O)c2N)cc1 (stereo not drawn)	/	1.2	0.717	-3.1	-29.8	0.2	-4.5
COc1ccc(CNC(=O)/C=C/c2cc([N+](=O)[O-])ccc2OC(F)F)cc1	?	-1.9	0.702	-0.3	0.9	0.1	-1.2
Cc1c(C)c2ccc(O[C@@H]3O[C@H](CO)[C@@H](O)[C@H](O)[C@H]3O)c(C)c2oc1=O	-10.8%	0.5	0.674	6.2	-23.4	0.2	0.4
CC(Oc1ccc2c3c(c(=O)oc2c1)CCCC3)C(=O)NCC1CCC(C(=O)O)CC1 (stereo not drawn)	/	-0.1	0.689	5.7	-99.0	0.7	-3.5
COc1ccccc1C/C(N)=N/OC(=O)c1ccc2c(c1)OCO2	-0.2%	-2.7	0.641	2.4	0.3	0.9	0.7
COc1c(C(O)CC(C)C)ccc2c1C(=O)OCc1cc(C)cc(O)c1O2 (stereo not drawn)	18.0%	10.1	0.712	-2.1	1.8	0.1	-1.7
Cc1cc(NC(=O)c2sc3ccccc3c2O)no1	/	1.0	0.658	-3.5	i	-10.0	6.2
COc1cc(Cn2c(=O)oc3ccc(C)cc32)ccc1OC(C)C	15.0%	2.4	0.68	-2.8	5.2	0.0	2.2
CCOC(=O)c1sc2nc(CC(=O)OC)nc(NCc3ccco3)c2c1C	2.44µM*	/	/	2.8	/	/	15.0
CC(=O)N/N=C(\N)c1nonc1N	-7.5%	0.5	0.628	7.4	1.7	-0.7	-0.9
CCCCCCCCCC(=O)N1c2ccccc2NC(=O)C1CC(=O)Nc1ccc(C(=O)O)cc1 (stereo not drawn)	2.8%	1.1	0.698	-2.3	7.6	-0.2	-3.0
CCC1CCCCN1CCCNC(=O)c1ccc(CS(=O)(=O)Cc2ccccc2F)o1 (stereo not drawn)	-0.7%	7.7	0.681	-0.5	0.2	0.3	3.7
O=C(Nc1ccccc1)C(O)C(O)C(=O)Nc1ccccc1 (stereo not drawn)	21.9%	3.2	0.703	20.7	3.8	0.4	2.0
COc1ccc2[nH]c(=O)c(CN(CC3CCCO3)C(=O)Nc3ccccc3OC)cc2c1 (stereo not drawn)	4.9%	/	0.728	7.7	-13.8	/	-2.1
Cc1cccc(NC(=S)N(CCN2CCOCC2)Cc2cc3cc4c(cc3[nH]c2=O)OCO4)c1	-11.7%	-8.2	0.634	8.4	-55.4	0.7	-1.9
COCCC(=O)N1CCC(Oc2ccc(C(=O)N3C[C@@H](C)O[C@@H](C)C3)cc2)CC1	/	/	0.718	-0.2	6.0	/	-4.1
CC(C)c1cc(C(=O)N2CCCC(C(=O)c3ccc4ccccc4c3)C2)on1 (stereo not drawn)	13.9%	-3.5	0.665	-4.7	-8.9	0.1	-4.0
COc1cc(C)c(NC(=O)Cc2ccsc2)cc1OC	/	-1.3	0.703	5.8	3.1	0.2	-0.7
Cc1cc(N2CCOCC2)n2ncc(-c3ccc(Cl)cc3)c2n1	-2.2%	4.4	0.691	-2.7	-381.0	-2.5	-0.8
CCOC(=O)CNc1ccc(OC(F)(F)F)cc1	5.8%	-0.9	0.687	-2.4	2.5	0.2	5.1
CC(=O)c1c(COC(=O)c2ccc(C)cc2)nc2ccccc2[n+]1[O-]	0.5%	1.9	0.716	3.1	5.8	0.6	-0.7
CCC(C)(C)NC(=O)C(c1ccccc1F)N(Cc1ccco1)C(=O)c1csnn1 (stereo not drawn)	10.6%	1.6	0.643	9.7	1.3	2.2	-1.4
CCN1CCN(C(=O)c2ccc(Cl)c(S(=O)(=O)N3CCOCC3)c2)CC1	-8.9%	2.9	0.661	0.6	5.4	0.7	0.7
CCCN=C1N(CC)C[C@@H]2[C@@H]3C(=O)N(C)C(=O)[C@@H]3[C@](Cc3ccccc3)(C(=O)OC)N12	-2.3%	/	0.72	-2.0	3.8	/	-1.1
Cc1ccc(C(=O)CSC2=C(C#N)C(c3ccco3)C3=C(CCCC3=O)N2)cc1 (stereo not drawn)	-1.1%&20.4%	2.2	0.71	1.8	2.5	-1.5	3.3
Cc1ncc(C(=O)Nc2ccccc2)[nH]1	1.1%	/	0.649	-4.1	-0.8	/	-2.0
CC(=O)Nc1cc(NC(C)=O)cc(C(=O)NC(C)(C)C)c1	-1.4%	4.3	0.721	-1.7	2.6	0.1	4.0
CC(=O)c1ccc(-n2c(CCC(=O)O)ccc2-c2ccccc2)cc1	-6.4%	-2.9	0.68	1.7	4.5	0.6	-1.2
CC(=O)c1cccc(NC(=S)N2CCN(c3ccccn3)CC2)c1	/	0.5	0.622	-11.1	1.4	0.1	1.0
COc1ccccc1N1CCN(C(=O)Cc2cccs2)CC1	2.3%	-1.2	0.652	-2.3	4.7	0.0	1.5
COc1cc(/C=N/NC(=O)c2ccc(O)cc2)ccc1OCC(=O)N1CC(C)OC(C)C1 (stereo not drawn)	17.9%	4.3	/	6.4	/	-0.5	2.5
CCOC(=O)CSc1nnc(CCc2nc3ccccc3[nH]2)n1C	-0.6%	1.4	0.72	2.6	0.6	0.6	0.3
Cn1c(Oc2ccccc2NCc2cccc(Br)c2)cc(=O)n(C)c1=O	-1.8%	-0.6	0.755	-3.1	5.4	-0.1	0.7
C=CCN(c1ccccc1)S(=O)(=O)c1cccc(C(=O)NCc2ccncc2)c1	2.4%	-2.3	0.671	-5.3	2.9	-1.1	-2.9
CCn1c(SCC(=O)c2ccc(NS(=O)(=O)c3ccccc3)cc2)nnc1-c1cccs1	2.2%&-3.0%	1.8	0.711	3.6	9.3	1.2	-6.5
COc1ccc(OC)c(CCNC(=O)CCn2ccc3cc(S(=O)(=O)N4CCCC4)ccc32)c1	/	3.7	0.651	1.2	2.1	1.8	2.3
CCCOc1ccc(N2C(=O)CC(N(Cc3ccco3)C(=O)CCC(=O)O)C2=O)cc1 (stereo not drawn)	9.6%	-2.4	0.676	-7.5	1.7	0.4	-0.7
Oc1c(Cl)cc(CN2CCCCC2)c2cccnc12	10.4%	-4.7	/	10.3	/	-0.2	-2.4
CCOC(=O)Cc1cc(=O)n2[nH]c(-c3ccccc3)cc2n1	4.0%	0.5	0.629	2.9	-15.9	0.3	-1.2
COc1ccccc1NC(=O)CN1CCN(c2ccc(Cl)cc2)CC1	2.4%	9.6	0.694	21.8	4.6	0.9	1.1
COc1cc(CN(C)CC2CCCN(CCc3ccccc3F)C2)cc(Cl)c1OC (stereo not drawn)	/	-0.8	/	-26.5	/	0.1	0.3
Cc1ccc(S(=O)(=O)c2nc(-c3ccccc3Br)oc2N(C)C)cc1	/	-3.4	0.7	1.8	3.6	-0.8	2.4
Cc1ccc(OCCNC(=O)c2cc(-n3cnnc3)ccc2Cl)cc1C	-0.3%	-0.4	0.656	-1.9	1.3	-0.2	4.0
Cc1ccnc(NC(=O)c2ccc(Cl)s2)c1	4.3%	1.6	0.72	-9.8	0.3	-14.2	1.3
Cc1oc2c(c1C(=O)c1ccc(Cl)cc1)C(=O)C(=O)c1ccccc1-2	9.1%	/	/	63.4*	/	/	-3.3
COc1ccc(C(=O)N2CCC(=O)N(C(CO)Cc3ccccc3)CC2)cc1 (stereo not drawn)	-4.3%	-5.7	/	-3.6	1.0	0.6	-0.5
O=C(CSC1=Nc2ccccc2C2CC=NN12)Nc1ccc2c(c1)OCO2 (stereo not drawn)	/	/	0.673	21.2	11.8	/	0.4
N#CCCn1cnc2ccccc21	-3.1%	-0.7	0.642	2.6	2.6	0.3	-0.3
Cc1cccn2c(=O)c(/C=C(\C#N)S(=O)(=O)c3ccc(Cl)cc3)c(N3CCC(C(N)=O)CC3)nc12	-12.7%&15.3%	-0.1	0.721	0.4	6.9	-0.4	-1.8

# Further entries follow.
Compound	Vif TR-FRET	LANA-H2B inh	E coli growth	B2AR ag	UCH37 DUB inh	A1 inh	HNF4A DNA FP
CCN(C(=O)c1ccc(=O)[nH]c1)c1c(N)n(Cc2ccccc2)c(=O)[nH]c1=O	-7.0%	-3.2	0.695	7.7	-0.5	-0.2	2.9
COc1ccccc1C=NN=Cc1ccccc1O	-4.8%	/	/	-5.6	/	/	5.1
Cc1ccc(NC(=O)CN2CCCCCC2)c(Br)c1	0.6%	/	0.656	7.3	1.7	/	1.2
CC1CCN(C(=O)c2cc(Cl)nc3ccccc23)CC1	0.9%	0.0	0.625	-1.5	-0.7	-1.0	-1.1
COc1ccccc1C1(O)C(=O)Nc2ccc(C)cc21 (stereo not drawn)	31.0%	2.3	0.62	-5.7	-1.6	0.4	-1.0
Cc1c(C)c(C)c(S(=O)(=O)NCCc2ccncc2)c(C)c1C	-3.5%	3.5	0.674	10.5	4.2	-0.1	2.3
O=C(NCc1ccc2c(c1)OCO2)c1ccc(CS(=O)(=O)Cc2cccc(Cl)c2)o1	/	0.6	0.63	4.9	-0.1	-0.1	1.1
O=C(Nc1ccc(C(=O)OC2CCCCC2)cc1)c1ccncc1	/	-0.3	0.707	9.6	5.2	0.5	1.0
COc1cc(NC(=O)C/C(C)=N/NC(=O)Cc2ccccc2)c(OC)cc1Cl	/	-3.1	/	2.3	/	0.0	0.2
Cc1ccc(OCC2Cn3c(nc4c3c(=O)[nH]c(=O)n4C)O2)cc1 (stereo not drawn)	19.1%	-4.4	0.725	-12.2	8.1	0.1	0.8
COc1ccc(Oc2ccc(C(F)(F)F)cc2NC(=O)c2ccc(F)cc2)cc1	/	-4.1	0.693	-11.9	3.5	0.7	-0.7

# High-throughput results (PubChem)
